Screening results deposited in PubChem BioAssay by National Center for Advancing Translational Sciences (NCATS).
TRPML1 inh: blocks the human TRPML1 channel. Q9GZU1. TRPML1-inducible cells, Ca2+ dye fluorescence, FDSS; hits give low values; inhibition of EC80 agonist-evoked calcium signal. activity change, negative = inhibition, % (test concentration not listed). 390,000 tested, 0.02% active. AID 624415; in the data active means activity change below about -50%; inconclusive means about -30% to -50%; inactive means above about -30%;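 also: stimulus is agonist 54-4 at its EC80 concentration; % is scaled to controls: 0 for no effect and ±100 for the full control effect; compound concentration not given in the record; the text of the record puts the active cut at -80%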
Target sequence (Q9GZU1 whole entry, looked up): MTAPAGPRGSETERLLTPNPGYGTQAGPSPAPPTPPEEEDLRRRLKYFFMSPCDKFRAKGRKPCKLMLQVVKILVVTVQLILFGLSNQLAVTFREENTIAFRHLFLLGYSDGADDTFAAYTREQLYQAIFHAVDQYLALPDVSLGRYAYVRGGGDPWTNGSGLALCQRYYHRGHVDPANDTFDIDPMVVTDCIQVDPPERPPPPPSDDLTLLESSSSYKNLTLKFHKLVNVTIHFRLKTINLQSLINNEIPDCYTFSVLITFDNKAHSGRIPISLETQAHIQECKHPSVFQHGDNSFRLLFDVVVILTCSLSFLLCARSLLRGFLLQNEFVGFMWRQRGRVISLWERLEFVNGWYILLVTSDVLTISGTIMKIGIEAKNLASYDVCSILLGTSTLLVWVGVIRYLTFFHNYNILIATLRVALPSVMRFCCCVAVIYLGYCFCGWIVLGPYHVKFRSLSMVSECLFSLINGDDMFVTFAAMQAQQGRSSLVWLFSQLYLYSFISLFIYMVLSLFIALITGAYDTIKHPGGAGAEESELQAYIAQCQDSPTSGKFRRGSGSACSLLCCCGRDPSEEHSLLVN
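Tet-induced TRPML1-DL cells loaded with Ca8 no-wash calcium dye were read kinetically on FDSS. Compound addition was followed by EC80 agonist 54-4 (4 uM final); inhibition was read over 110 s.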
ClpP mod: qHTS Assay for Activators of ClpP. Potency, µM (highest dose often 57.5 µM), for inactives: top-dose activity change, negative = active. 340,000 tested, 1.9% active. purified B. subtilis ClpP, FRET peptide cleavage, 20 min. ATP-dependent Clp protease proteolytic subunit (Bacillus subtilis (strain 168)), P80244; active = well fitted falling curve with a large enough effect; inconclusive = small, poorly fitted or top-dose-only effect; inactive = no such curve, though single readings can be large or run the other way; also: potency is read from the fitted curve at half-maximal effect; the source files actives as falling curves though it sought activators and does not explain the sign; nearly all actives have a fitted effect of over 65% in size; many hits overshoot -100%
Target sequence (P80244 whole entry, looked up): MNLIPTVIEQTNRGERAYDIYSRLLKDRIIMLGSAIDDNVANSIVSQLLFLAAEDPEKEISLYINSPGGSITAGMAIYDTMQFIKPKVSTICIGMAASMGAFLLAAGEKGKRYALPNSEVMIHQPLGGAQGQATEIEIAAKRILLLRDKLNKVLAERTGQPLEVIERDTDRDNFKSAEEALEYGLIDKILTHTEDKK
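Purified B. subtilis ClpP, 10 microg/mL final in Tris/HCl pH8 with KCl, BSA, glycerol and Tween-20, cleaved an Abz/nitrotyrosine-quenched decapeptide. Fluorescence (ex 320, em 430) was read at 0 and 20 min at room temperature. Delta was normalized to 5.8 microM ADEP and DMSO/no-enzyme controls.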
PINK1 expr mod: PINK1 expression modulation; PINK1 immunofluorescence, high-content cytometry, 24 h; Potency, µM (highest dose often 76.6 µM), inactives show top-dose activation (PINK1 increase), usual class: activators; 410,000 tested, 0.2% active; active = well fitted activation curve with a large enough effect; inconclusive = small, poorly fitted or top-dose-only effect; inactive = flat fitted curve, though single readings scatter; cell line not stated here;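 also: potency is read from the fitted curve at half-maximal effect; % of control where 0% means no effect; nearly all actives have a fitted effect of over 65% in size; a mitochondrial uncoupler was the plate control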
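Decision-based qHTS: stable cells, 24 h exposure to five compound concentrations, CCCP as control. Fixed cells stained for PINK1 plus nuclear, mitochondrial and cell markers, cytometer read.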
TRPV1 PAM: potentiators of human vanilloid receptor 1 (TRPV1). TRPV1-expressing cells, Fluo-8 calcium influx, capsaicin EC20 potentiation; host cell line not named in the record; control for the full effect not named in the record. AID 540277. 320,000 tested, 0.02% active. potentiation, % at 8.33 µM. Q8NER1; active means potentiation above 80%; inconclusive means 30% to 80%; inactive means below 30%; also: 0% is about no effect
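Fluo-8 calcium influx in TRPV1-expressing cells, kinetic read (ex 480/em 520 nm). Compound added and read 3 min for agonist activity, followed by capsaicin at EC20 final and 2 min further read for enhancement.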
TRPML1 agonist: agonists of human TRPML1 channel | Q9GZU1 | TRPML1-expressing cells, Ca2+ dye fluorescence, FDSS; host cell line not named in the record; reference of the full effect not given here | activation, % (test concentration not listed) | 410,000 tested, 0.12% active | AID 624414; in the data active = activation above about 50%; inconclusive = about 30% to 50%; inactive = below about 30%; also: 0% is about no effect; the text of the record puts the active cut at 80%
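TRPML1-DL cells, Tet-induced overnight (~16 h, 37 degrees C), loaded 45-90 min at room temperature with Ca8 no-wash calcium dye plus quencher. FDSS fluorescence: 10 s baseline, compound pin-transfer, 110 s agonist read, then EC80 54-4 (4uM final) and 110 s antagonist read.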
Menin MLL FP FL: inhibitors of human menin-MLL interaction, wild-type MLL peptide. Fluorescence polarization, fluorescein-MLL peptide displacement from menin. FP activity change, % at 61.4 µM. 290,000 tested, under 10 active; inconclusive = falling polarisation curve, or a change in total fluorescence; inactive = total fluorescence flat and polarisation flat or rising; no compound was filed as active; the % refers to the polarisation; negative = inhibition;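 also: % of control where 0% means no effect; inhibitors lower the polarisation; unlabelled MLL peptide was the positive control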
Sfp inh: inhibitors of Bacillus subtilis Sfp phosphopantetheinyl transferase | Q9F4F7 | AID 1490 | 310,000 tested, 3.5% active | Biochemical Sfp PPTase activity, qHTS | Potency, µM, for the others: max response, negative = inhibition, most hits filed as inhibitors; active = well fitted inhibition curve with a large enough effect; inconclusive = small, poorly fitted or top-dose-only effect, or another doubt; inactive = no such curve, though single readings can be large or run the other way;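 also: the enzyme is Sfp with the accession as filed and its product quenches rhodamine fluorescence; potency is read from the fitted curve at half-maximal effect; 0% = enzyme reaction without inhibitor and -100% = no enzyme wells; top concentration of the series not given in the record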
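Buffer: 50 mM Hepes-Na pH 7.6, 10 mM MgCl2, 0.01% Nonidet P-40, 0.01% BSA. Enzyme 15 nM, pre-exposed to compound 15 min; substrates then added and fluorescence change tracked over 30 min.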
* marks the source's active call; other numbers are inactive results; ? = inconclusive; / = no result given; & = joins results of further samples; [ ] = remark or other dose. Not all compounds are listed; the hit share may differ from the screen's.

Values run as follows: TRPML1 inh	ClpP mod	PINK1 expr mod	TRPV1 PAM	TRPML1 agonist	Menin MLL FP FL	Sfp inh
CCOC(=O)CC1c2ccccc2-n2nncc2CN1C (stereo not drawn)
 : -12	-2.5%	1.0%	/	-0.7	/	/
O=c1cccc2n1CC1CC2CN2CCCCC12 (stereo not drawn)
 : /	/	0.4%	/	/	-1.5	17%
O=c1[nH]c(=S)[nH]c(O)c1CN1CCCCC1
 : -3	-2.6%	0.3%	3	0.4	/	-9%
c1ccc2c(N3CCNCC3)nsc2c1
 : 10	/	0.9%	-7	-1.0	8.8	1%
CCOC(=O)C1=C(N)Oc2cc(C)oc(=O)c2C12C(=O)N1c3c(cc(OC)cc32)C(C)=CC1(C)C (stereo not drawn)
 : 46	-0.8%	9.9%[38.3 µM]	9	0.7	0.8	-10%
COc1ccc2nc(-c3ccc(CN4CCC(n5c(=O)[nH]c6ccccc65)CC4)cc3)c(-c3ccccc3)nc2c1
 : /	-27%	-0.4%	/	-0.6	/	/
O=C1CN=C(c2ccc[nH]2)c2cc(Cl)ccc2N1
 : 9	2.3%	-0.5%	-23	2.4	4.7	5%
Cc1ccc(C(C)C)c(OCC#CCN2CCCC2)c1
 : 16	0.7%	8.3%	8	2.1	-1.6	?
CCCCn1c(O)c(C(C)=NCCCn2ccnc2)c(=O)[nH]c1=O
 : -5	0.2%	-2.0%	-6	-1.0	3.1	4%
O=C(COc1ccc(Cl)cc1Cl)N1CCN(C/C=C/c2ccccc2)CC1
 : -1	-1.6%	?	-7	1.9	0.3	-10%
Cc1cc(/C=C2/C(=O)NC(=O)N(c3ccc(Br)cc3)C2=O)c(C)n1C
 : 10	-8.2%	11%	/	-0.4	8.6	6%
Cc1ccc(C[n+]2c(-c3ccc(C)cc3)cc(-c3ccc(C)cc3)cc2-c2ccc(C)cc2)cc1
 : 13	4.4%	-1.1%	2	-0.1	/	/
O=C1NC(=O)C(=Cc2cccs2)C(=O)N1
 : -7	/	11%	/	0.1	/	/
CCOCCCN=Cc1c(O)n(Cc2ccccc2)c(=O)[nH]c1=O
 : 5	-0.6%	0.6%	2	-1.0	3.9	13%
O=c1[nH]c(=S)n(Cc2ccco2)c(O)c1C=NCc1cccs1
 : 4	-1.9%	-1.2%	10	-0.5	4.5	-1%
Cc1ccc(N=Cc2c(O)n(-c3ccc(C)cc3)c(=O)[nH]c2=O)cc1
 : 6	118%	-1.5%	/	0.6	/	/
O=C1Nc2ccc(Br)cc2C(c2ccccc2Cl)=NC1O (stereo not drawn)
 : /	-2.0%	0.3%	10	/	-2.7	2%
CC(C)NP(=O)(NC(C)C)OP(=O)(NC(C)C)NC(C)C
 : 13	-2.1%	1.9%	-12	0.0	1.7	/
O=C1NC(=O)C(=CCc2ccccc2)C(=O)N1
 : 16	-4.8%	2.7%	/	0.0	/	/
CN(C(=O)Oc1ccc(C(=O)c2ccc(Cl)cc2)cc1)c1ccccc1
 : 1	0.8%	3.0%	8	0.4	7.7	-2%
Cc1cccc(CNCCc2ccccc2)n1
 : -9	?	1.8%	-9	0.7	1.3	-3%
COC(=O)CSC1=NN1c1cc(C)nc(N)n1
 : -16	-2.3%	0.7%	-5	1.1	-2.3	-7%
Cc1cc(OCC(=O)N2CCC(C(=O)O)(c3ccccc3)CC2)c2c(C)cc(=O)oc2c1
 : /	4.8%	-0.4%	-6	/	0.2	18%
CN1C(=O)NC(=O)C2(Cc3ccccc3N3CCOCC32)C1=O (stereo not drawn)
 : -8	-1.7%	0.9%[38.3 µM]	0	0.6	-3.9	-1%
O=C(c1cc2nc(-c3ccccc3)cc(-c3ccccc3)n2n1)N1CCC2(CC1)OCCO2
 : -5	35µM*	-0.4%	25	1.9	0.2	-15%
O=c1[nH]c(=O)n(-c2ccccc2)c(O)c1N=Nc1ccc(Br)cc1
 : -25	-1.4%	-4.3%	-10	1.6	10	-8%
O=C(CCc1nc(C2=CCN(Cc3cccc(Cl)c3)CC2)no1)Nc1ccccc1F
 : -6	-3.1%	1.0%	/	0.1	/	/
C[C@@H]1CN([C@@H](C)CO)C(=O)CCCn2cc(nn2)CO[C@H]1CN(C)C(=O)Oc1cccc2ccccc12
 : 11	-1.0%	1.2%	/	-0.5	/	/
COC(=O)C1=C(c2ccc(OC(F)(F)F)cc2)C[C@@H]2CC[C@H]1N2C(=O)NC1CC1
 : 3	-0.9%	-0.4%	-8	-0.3	/	/
O=C(N/N=C/c1c(O)n(CCc2ccc(F)cc2)c(=O)[nH]c1=O)c1ccccc1
 : 6	-1.0%	1.7%	1	1.3	12	13%
CN1C(=O)NC(=O)/C(=C/c2ccc([N+](=O)[O-])s2)C1=O
 : 11	/	?	9	0.7	?	11µM*
COC(=O)C1=C(c2cc3ccccc3o2)C[C@@H]2CC[C@H]1N2C(=O)N1CCC(O)CC1
 : 3	-0.4%	-1.6%	/	-0.9	/	/
CC(C)c1cccc(C(C)C)c1OCCn1ccnc1
 : -27	-1.7%	5.3%	-6	2.6	1.0	14%
Cc1csc(NC(=O)C(Cl)c2ccccc2)n1 (stereo not drawn) (tested in a mixture with another compound)
 : 10	-0.5%	0.1%	/	1.0	/	/
COC(=O)C1=C(c2ccc(OC)c(OC)c2)C[C@@H]2CC[C@H]1N2C(=O)NCCCOC(C)C
 : 5	0.0%	1.4%	9	0.0	/	/
O=C(C(=O)N1CCOCC1)c1cn(Cc2ccc(F)cc2)c2ccccc12
 : -5	1.2%	-1.0%	-21	0.0	-3.0	3%
CC(=O)N(C1=NCCCS1)c1ccc(Cl)cc1
 : -3	/	-1.4%	4	0.3	-4.4	3%
Cc1c(N=Cc2c(O)n(Cc3ccco3)c(=O)[nH]c2=O)c(=O)n(-c2ccccc2)n1C
 : 14	11µM*	-0.7%	0	-0.9	?	-20%
O=c1[nH]c(=S)[nH]c(O)c1N=Nc1ccc(S(=O)(=O)N2CCOCC2)cc1
 : 28	0.6%	-0.9%	15	0.5	1.0	-18%
Cc1ccc(C2CC(=O)C(C=NCCN3CCN(C(=O)Cc4ccccc4)CC3)=C(O)C2)cc1 (stereo not drawn)
 : -1	32µM*	1.3%	2	-0.4	1.5	9%
COc1ccc(C(CNC(=O)c2ccc3c(c2)CCC3)N(C)C)cc1 (stereo not drawn)
 : 22	/	-2.3%	18	3.0	-2.6	16%
O=C(CCn1nc(-c2ccc(Cl)cc2)ccc1=O)N1CCC2(CC1)OCCO2
 : 2	-13%	0.8%	-11	0.4	-1.5	16%
Cc1ccc(OCC(=O)N2CCN(CC3CC4C=CC3C4)CC2)cc1 (stereo not drawn)
 : -8	1.1%	-1.4%	-19	-0.5	2.0	-21%
Cc1ccc(-c2cc(-c3ccc(C)cc3)[n+](-c3ccc(C(=O)O)cc3)c(-c3ccc(C)cc3)c2)cc1
 : 2	4.2%	3.0%	28	-0.8	/	/
COc1cc(OC)c(OC)cc1CNCCc1ccc(F)cc1
 : 22	/	-0.6%	-6	-0.3	-2.2	-17%
CC(C)C(=O)N1CCN(CCN=Cc2c(O)n(C)c(=O)n(C)c2=O)CC1
 : 9	-0.1%	7.8%[38.3 µM]	-42	0.7	-16	-8%
CN(C)CC#CCC(O)(c1ccccc1)C1CCCC1 (stereo not drawn)
 : -18	0.5%	-0.3%	?	-0.2	0.3	10%
CC(=O)C1(c2ccccc2)CCNCC1
 : 1	-0.2%	-9.4%[38.3 µM]	26	0.8	2.3	-1%
Cc1ccsc1C(=O)C1CCCN(Cc2c(C)nn(C(C)C)c2C)C1 (stereo not drawn)
 : -13	/	4.6%	2	0.0	0.3	1%
CC(c1ccccc1)n1cncc1C(=O)N1CCCC1=O (stereo not drawn)
 : 16	-0.2%	3.9%[38.3 µM]	3	-0.4	1.5	17%
C[C@]12CC[C@H](O)CC1=CCC1C2CC[C@@]2(C)C1C[C@@H](O)[C@@H]2O (stereo partly drawn)
 : 23	-0.7%	-0.5%	/	0.1	/	/
CCN[C@@H](C)Cc1cccc(C(F)(F)F)c1
 : 3	1.2%	-1.1%	/	-0.1	/	/
c1ccc2c(NC3=NCCS3)cccc2c1
 : 1	-1.3%	2.9%	4	2.9	5.2	15%
CC(=O)c1cn(Cc2ccccc2C#N)c2ccccc12
 : 3	/	-1.0%	-4	0.5	-0.4	-3%
COc1ccc2nc(NC3=NCCN3)sc2c1
 : -15	-0.6%	1.4%	3	-0.3	-0.6	1%
Cc1ccccc1-n1c(O)c(/C=N/c2nccs2)c(=O)[nH]c1=O
 : 8&2	/	3.2%&-0.6%	1&13	-0.1&-0.1	?	-6%&0%
O=c1[nH]c(=O)n(CCC2=CCCCC2)c(O)c1C=Nc1cccc(F)c1
 : 9	18%	6.1%[38.3 µM]	-2	-0.8	7.9	-19%
CCCCSP1(=S)NCCCO1 (stereo not drawn)
 : -10	0.1%	1.9%	0	1.9	-1.1	8%
O=c1c2cc([N+](=O)[O-])ccc2nc(CN2CCOCC2)n1-c1ccccc1F
 : /	/	/	?	/	3.7	22µM*
CCOC(C(=O)OCCC[N+](C)(CC)CC)(c1ccccc1)c1ccccc1
 : 1	-0.9%	/	-13	0.6	4.0	24%

(continued)
Values run as follows: TRPML1 inh	ClpP mod	PINK1 expr mod	TRPV1 PAM	TRPML1 agonist	Menin MLL FP FL	Sfp inh
CC(=O)Nc1ccccc1C(=O)OCc1ccc(F)cc1
 : -4	/	7.5%	11	1.6	-2.9	-3%
O=[N+]([O-])c1cccc(CN2CCN(Cc3ccc(Br)cc3)CC2)c1
 : -15	1.7%	5.9%	7	1.0	-4.3	?
CC1CN=C(NCc2ccccc2Cl)S1 (stereo not drawn)
 : -20	-1.4%	4.4%	11	0.1	-1.0	15%
COC(=O)C1=C(c2ccc(F)cc2OCc2ccccc2)C[C@@H]2CC[C@H]1N2C(=O)NCCOc1ccc(OC)cc1
 : 66	1.3%	0.0%	0	1.3	/	/
O=C(CCc1ccc(O)cc1)N1C[C@H]2C[C@@H](C1)c1cccc(=O)n1C2
 : /	-1.6%	0.8%	-5	/	-2.2	10%
COC(=O)C1=C(c2cccc(C#N)c2)C[C@@H]2CC[C@H]1N2C(=O)NC1CCCCC1
 : -17	-1.1%	-0.7%	-10	-0.2	/	/
